High-throughput results from PubChem.
GIV-Gai inh: blocks GIV peptide binding to rat Galpha-i3; P08753; Galpha-i3/FITC-GIV peptide fluorescence polarization, 90 min; hits give low values; scaled: aluminum fluoride 0%, vehicle 100%; percent of control (FP), % (concentration not given with the values); 0.42% of 210,000 active;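 active means replicate mean at 85% of control or lower, very high polarization wells dropped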;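 further: wells of about 15 µL received 100 nL stock; the first replicate is given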
Target sequence (P08753 whole entry, looked up): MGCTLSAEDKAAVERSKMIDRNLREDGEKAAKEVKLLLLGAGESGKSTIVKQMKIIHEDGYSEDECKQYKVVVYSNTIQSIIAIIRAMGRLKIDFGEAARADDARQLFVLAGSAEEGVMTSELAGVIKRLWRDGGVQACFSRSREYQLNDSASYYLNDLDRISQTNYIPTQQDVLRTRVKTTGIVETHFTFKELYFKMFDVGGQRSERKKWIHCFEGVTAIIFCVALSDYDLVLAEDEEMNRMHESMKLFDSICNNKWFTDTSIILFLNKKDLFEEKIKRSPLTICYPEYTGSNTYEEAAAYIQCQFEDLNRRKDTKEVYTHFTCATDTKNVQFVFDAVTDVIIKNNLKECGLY
Sa growth inh: blocks Staphylococcus aureus growth | S. aureus RN4220 growth, OD600, 20 h, 42 °C; hits give low values | relative growth, % (no concentration beside the values) | AID 720641 | 0.53% of 170,000 active;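 active means growth at 42 °C up to 50% and 20 or more points under that at 30 °C, or under 10% at both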;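 further: 300 nL library stock went into each well; scaled to the means of positive and negative controls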
HCMV UL50-53 inh: inhibitors of HCMV UL50-UL53 nuclear egress complex interaction; HTRF UL50-UL53 interaction, normalized percent inhibition; inhibition, % (concentration not given with the values); 0.15% of 190,000 active;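 active means both replicates at 50% or more, plus weaker picks with an unusually low signal ratio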;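 further: stock transfer was 100 nL into about 20 µL; 0% = negative control wells and 100% = wells with untagged competitor protein; inactives centre near -12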
Sa growth inh second temp: further read-out of Sa growth inh, marked with its call; relative growth, %; measured here: growth at 30 °C;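 optical density after 20 h as mean of two plates; 100% = untreated growth and lower means inhibition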
The depositor's hits bear a star; / = not tested or not shown; & = joins results of further samples.

Key to letters – A = GIV-Gai inh; B = Sa growth inh; C = Sa growth inh second temp; D = HCMV UL50-53 inh
> CCN(CC)S(=O)(=O)c1ccc(C(=O)NNc2nc3c(OC)ccc(OC)c3s2)cc1
  A: 100	B: 68	C: 43	D: -14
> Cc1ccc(-c2nnc(-n3nnc4ccccc43)c3ccccc23)cc1C
  A: 99	B: /	C: /	D: -25
> Cc1ccc2oc(=O)c(/C=C(\O)C(C)(C)C)nc2c1
  A: 102	B: 97	C: 86	D: -17
> COCc1cc(C)nc(SCCN(C)C)c1C#N
  A: 101	B: 74	C: 84	D: /
> CC(C)Cc1cc(-c2ccccc2)c(C#N)c(=O)[nH]1
  A: 109	B: /	C: /	D: -24
> Fc1ccc(-c2noc3ncnc(NCC4CCCO4)c23)cc1 (stereo not drawn)
  A: 108	B: 114	C: 90	D: -35
> CC1CCC[S+](c2cc(O)ccc2O)C1 (stereo not drawn)
  A: 99	B: 86	C: 75	D: -34
> COc1ccc(NC(=O)CCS(=O)(=O)c2nc(-c3ccc4c(c3)OCO4)cc(C(F)(F)F)n2)c(OC)c1
  A: 103	B: 93	C: 88	D: -26
> CC1CCCC(C)N1CCNC(=O)c1cn(C(C)c2ccccc2F)nn1 (stereo not drawn)
  A: 101	B: 104	C: 87	D: -4
> Oc1ccc(CN2CCCc3ccccc32)c2cccnc12
  A: 99	B: 82	C: 89	D: -12
> COc1ccccc1-c1noc(CCCC(=O)NC2CCCC2)n1
  A: 103	B: 109	C: 93	D: 7
> CCOc1ccc(NC(=O)CCCn2c(C)c3cnn(-c4ccccc4)c(=O)c3c2C)cc1
  A: 101	B: 110	C: 93	D: -4
> Cc1ccc(CNC(=O)C2CCCN(C(=O)N(C)C)C2)cc1 (stereo not drawn)
  A: 102	B: 92	C: 82	D: -28
> N#Cc1ccccc1NC(=O)CCCC(=O)Nc1ccccc1C#N
  A: /	B: 90	C: 88	D: -14
> O=C(NC1CCCCC1)NC1CCN(Cc2nnnn2Cc2ccc(F)cc2)CC1
  A: 100	B: 90	C: 69	D: 4
> CCOc1cc(C2NC(=O)NC(C)=C2C(=O)OC(C)C)ccc1OCc1ccccc1 (stereo not drawn)
  A: 105	B: /	C: /	D: -12
> CN1CC(=O)N/C1=N/C(=O)Nc1ccc2c(c1)N(C)C(=O)CS2
  A: 101	B: 83	C: 82	D: /
> CCOc1sc2nc(C)n(CC(=O)N(CC)CC)c(=O)c2c1C
  A: 103	B: 91	C: 88	D: -8
> O=C1CCC(=O)N1CN(CN1C(=O)CCC1=O)C1CCCCC1
  A: 99	B: 107	C: 99	D: -28
> CC1CCCN(C2(O)C(=O)N(C)c3ccc(Br)cc32)C1 (stereo not drawn)
  A: 103	B: 89	C: 86	D: -72
> CCCSc1nnc2c(n1)OC(c1ccccc1OCC(=O)OCC)Nc1ccccc1-2 (stereo not drawn)
  A: 21*	B: /	C: /	D: -16
> COc1ccc(N2C(=O)c3ccccc3NC2c2ccc3c(c2)c2ccccc2n3C)cc1 (stereo not drawn)
  A: 100	B: /	C: /	D: -15
> O=C(/C=C/c1cnc2ccccc2n1)OCC(=O)N1CCCCCC1
  A: /	B: 99	C: 95	D: -45
> CC(C)(C)C(=O)NCc1ccc(-c2csnn2)cc1
  A: 100	B: 97	C: 112	D: 3
> COc1ccccc1/C=C/C1N=C(N)Nc2nc3ccccc3n21 (stereo not drawn)
  A: /	B: 78	C: 29	D: -41
> CCCCN(C)C(=O)c1ccc2c(c1)N(Cc1ccccc1F)C(=O)c1ccccc1S2=O (stereo not drawn)
  A: 102	B: 98	C: 76	D: -10
> CN(Cc1c(F)cccc1Cl)c1ncnc2ccccc12
  A: /	B: 101	C: 74	D: -12
> NC(=O)c1oc2ccccc2c1NC(=O)CN1C(=O)c2ccccc2C1=O
  A: 99	B: 94	C: 92	D: -50
> CSc1sc(C(=O)NCC2CC2)cc1S(=O)(=O)C(C)C
  A: 103	B: 97	C: 89	D: -5
> O=S1(=O)NC(=NC2CCCCCC2)c2ccccc21
  A: 102	B: 110	C: 99	D: 4
> COc1cc(C(=O)COC(=O)c2ccccc2)cc(OC)c1OC
  A: /	B: 101	C: 93	D: 8
> Cc1ccc(NC(=O)Nc2ccc(SCc3cc(=O)n4c(ncn4C(C)C)n3)cc2)cc1C
  A: 107	B: /	C: /	D: -27
> Cc1ccc(-n2ncc3c(N(C)Cc4ccccc4)ncnc32)cc1
  A: 106	B: 115	C: 92	D: /
> O=C(Nc1ccc(Cl)cc1)C1CCCN(c2nc3cccnc3s2)C1 (stereo not drawn)
  A: 108	B: /	C: /	D: -14
> Cc1nc(N)[nH]c(=O)c1CC(=O)O
  A: 112	B: 90	C: 106	D: /
> CS(=O)(=O)c1ncc(N(Cc2ccccc2)Cc2ccco2)c(C(=O)Nc2cccc(C(F)(F)F)c2)n1
  A: 98	B: 93	C: 82	D: -22
> CCCN(CCC)c1nc(N2CCCC2)nc(N2CCCC2)n1
  A: 100	B: 104	C: 89	D: 10
> COc1ccc(S(=O)(=O)N(CC(=O)Nc2ccccc2Cl)Cc2ccccc2)cc1
  A: 104	B: 101	C: 97	D: /
> CC1Cc2nc(SCC(=O)NCc3ccco3)n(Cc3ccccc3)c(=O)c2S1 (stereo not drawn)
  A: 100	B: 113	C: 91	D: /
> CCc1nc(-c2ccc3c(c2)CCN3C(=O)Cc2ccc(Br)cc2)no1
  A: 105	B: /	C: /	D: -19
> O=C(CN1CCOCC1)OCCCC1CCCCC1
  A: 97	B: 93	C: 84	D: -16
> O=C(NCc1ccccc1)C1CC1
  A: /	B: 96	C: 90	D: -8
> COc1ccc(-c2nnc(SCc3ccc(C#N)cc3)n2C(C)C)cc1
  A: /	B: 98	C: 95	D: -8
> Cc1[nH]nc2oc(=O)c(CC(=O)O)c(C)c12
  A: 84*	B: 87	C: 76	D: 65
> CCOc1ccc(CNC(=O)CCCn2c(=O)c3cccn3c3cccnc32)cc1
  A: 104	B: 90	C: 86	D: /
> CC(C)C(=O)NCCN1C(=O)S/C(=C\c2cccs2)C1=O
  A: /	B: 90	C: 98	D: -80
> CCCN1C(=O)/C(=C2\SC(=S)N(c3c(C)n(C)n(-c4ccccc4)c3=O)C2=O)c2ccccc21
  A: 104	B: /	C: /	D: 5
> CCOc1ccc(-c2noc(CSc3nnc(Cc4ccccc4)n3-c3ccc(F)cc3)n2)cc1
  A: 96	B: 102	C: 84	D: -33
> O=C(NCCCN1CCC(N2CCCCC2)CC1)c1nnc(C(=O)Nc2ccccc2)s1
  A: 101	B: /	C: /	D: -33
> O=C1C2C(c3ccccc3)C=CC(c3ccccc3)C2C(=O)N1C1CCCCC1 (stereo not drawn)
  A: 104	B: 100	C: 95	D: /

Next results follow:
Key to letters – A = GIV-Gai inh; B = Sa growth inh; C = Sa growth inh second temp; D = HCMV UL50-53 inh
> O=C(C1CCC(=O)N1S(=O)(=O)c1ccccc1)N1CCc2ccccc2C1 (stereo not drawn)
  A: 105	B: /	C: /	D: -22
> CC1CN(C(=O)c2ccc(Oc3ccccc3)cc2)CC(C)O1 (stereo not drawn)
  A: /	B: 93	C: 95	D: -3
> CCN(CC)c1c(S(=O)(=O)c2ccccc2)cnc2ccc(C)cc12
  A: 93	B: /	C: /	D: -11
> CCNC(=O)c1ccc(CN2C(=O)C(C)=C(c3ccc(C)c(C)c3)S2(=O)=O)cc1
  A: 99	B: /	C: /	D: -10
> CCCc1cc(=O)oc2c(C)c3c(cc12)CN(CCc1ccc(Cl)cc1)CO3
  A: 98	B: 107	C: 81	D: -22
> Cc1ccn2cc(CNS(=O)(=O)N(C)C)nc2c1
  A: 111	B: 94	C: 78	D: /
> Cn1cc2nc(SCC(=O)Nc3ccc(Br)cc3)n(CC3CC3)c(=O)c2n1
  A: 106	B: /	C: /	D: -20
> CCn1c(=O)[nH]c(=O)c2c(C(F)(F)F)cc(C(F)(F)F)nc21
  A: /	B: 82	C: 89	D: -42
> O=C(N/N=C/c1ccccc1)NC1CCCCC1
  A: /	B: 100	C: 90	D: -25
> O=C(CN1C(=O)S/C(=C\c2ccccc2)C1=O)N1CCN(c2ccccc2)CC1
  A: /	B: 107	C: 89	D: -8
> CCCCSCc1ccc(C(=O)O)o1
  A: 103	B: 138	C: 95	D: -27
> CCN(Cc1ccccc1)c1ccc(NS(=O)(=O)CC)cc1C(=O)O
  A: 97	B: /	C: /	D: -6
> Cn1c(=O)n(C)c2cc(CNCc3ccccc3Cl)ccc21
  A: 104	B: 100	C: 82	D: -15
> Cc1nc(N2CCCC(C(=O)N3CCCC3)C2)c2c(C)c(C)oc2n1 (stereo not drawn)
  A: 102	B: /	C: /	D: -8
> CCOC(=O)/C(C#N)=C/N1CCCC1c1cccs1 (stereo not drawn)
  A: 109	B: 95	C: 86	D: -23
> FC(F)(F)c1cccc(OCc2nnc3n2CCC3)c1
  A: /	B: 83	C: 91	D: -10
> CSc1nn(Cc2ccc(F)cc2)c(N(C(C)=O)C(C)=O)c1S(=O)(=O)c1ccccc1
  A: 101	B: 95	C: 85	D: -12
> COc1ccc(Br)cc1C1C(C#N)=C(N)Oc2c1c(C)nn2-c1ccccc1 (stereo not drawn)
  A: 102	B: /	C: /	D: -6
> COc1cc2c(cc1OC)C(COc1ccc3c(C)cc(=O)oc3c1)N(C(=O)c1ccco1)CC2 (stereo not drawn)
  A: 98	B: 87	C: 81	D: -36
> CS(=O)(=O)N/N=C/C=C/c1ccccc1
  A: 100	B: 113	C: 116	D: -56
> CCN(CC)CCSc1nc2ccccc2c(=S)n1-c1ccccc1
  A: 106	B: 106	C: 69	D: /
> CCOCCCNC(=O)C(c1ccc(OC)cc1)N(Cc1cccs1)C(=O)c1ccccc1O (stereo not drawn)
  A: 103	B: 87	C: 86	D: 0
> CCc1ccc(N2CC(C(=O)NCCCn3ccnc3)CC2=O)cc1 (stereo not drawn)
  A: /	B: 79	C: 88	D: -11
> CCOC(=O)C1CCN(C(=O)CCC(=O)NNc2nc3ccccc3c3nc(-c4ccccc4)nn23)CC1
  A: 103	B: 101	C: 90	D: 0
> CCOc1ccc2c(c1)ncn2Cc1ccccc1
  A: /	B: 104	C: 90	D: 18

Molecules from the list above that contain a tert-butyl group (2):
Key to letters – A = GIV-Gai inh; B = Sa growth inh; C = Sa growth inh second temp; D = HCMV UL50-53 inh
> Cc1ccc2oc(=O)c(/C=C(\O)C(C)(C)C)nc2c1
  A: 102	B: 97	C: 86	D: -17
> CC(C)(C)C(=O)NCc1ccc(-c2csnn2)cc1
  A: 100	B: 97	C: 112	D: 3

Additional results follow.
Key to letters – A = GIV-Gai inh; B = Sa growth inh; C = Sa growth inh second temp; D = HCMV UL50-53 inh
> CCOc1ccc(CN(C)C(=O)CNC(=O)C2CCCCC2)cc1
  A: /	B: 87	C: 86	D: -16
> COc1ccc(N2C(=O)CCC(C(=O)NCc3ccc(F)cc3)C2c2ccc(F)cc2)cc1 (stereo not drawn)
  A: 99	B: 93	C: 84	D: 1
> CCS(=O)(=O)N1CCc2cc(C(=O)Nc3cc([N+](=O)[O-])ccc3C)ccc21
  A: 100	B: 113	C: 86	D: -29
> Cc1c(-c2nnc(C(=O)NC3CCCC3)o2)oc2ccccc12
  A: 109	B: /	C: /	D: 25
> CCOC(=O)C1=C(CN2CCC(C)CC2)NC(=O)NC1c1ccc(F)cc1 (stereo not drawn)
  A: 100	B: 142	C: 103	D: /
> CCc1ccc(NC(=O)c2nn(-c3ccc(C)cc3)c(=O)n(C)c2=O)cc1
  A: 101	B: 89	C: 95	D: /
> NC(=O)CCCCC1CCSS1 (stereo not drawn)
  A: 100	B: 107	C: 85	D: -19&-72
> COc1ccc(C(=O)NCC(C)C)c(OC)c1
  A: 95	B: 68	C: 101	D: 17
> COc1ccc(CNc2ncnc3c2cnn3-c2ccc(C)c(C)c2)cc1
  A: 106	B: 109	C: 96	D: /
> CCc1nnc(NC(=O)CN2CCN(c3ccccc3)CC2)s1
  A: 106	B: 118	C: 79	D: -9
> COc1cccc(OC(=O)CSc2nnc(-c3cccs3)o2)c1
  A: 102	B: 102	C: 89	D: -7
> COC(=O)c1cc2oc3ccccc3c2n1CC(=O)Nc1ccc(F)c(Cl)c1
  A: 101	B: 107	C: 93	D: -19
> COCCn1c(SCC(=O)c2cc(C)ccc2C)nc2cc(C(=O)NC3CCCC3)ccc2c1=O
  A: 110	B: 82	C: 91	D: /
> COc1ccc(Cl)cc1NS(C)(=O)=O
  A: /	B: 101	C: 87	D: -5
> c1ccc(-c2nc(N3CCCCC3)nc3ccccc23)cc1
  A: 102	B: 109	C: 74	D: -6
> COCc1cc(=O)[nH]c(-c2ccccc2)n1
  A: 99	B: /	C: /	D: -18
> Cc1ccc(NC(=O)Nc2ccc3nc(N4CCN(C)CC4)cc(C)c3c2)cc1F
  A: 102	B: 84	C: 93	D: /
> O=C(Nc1cccc([N+](=O)[O-])c1)c1cc(-c2ccccc2)nc2ccccc12
  A: 107	B: /	C: /	D: 5
> C=CCNC(=O)CN1c2ccc(F)cc2-c2ccccc2S1(=O)=O
  A: 107	B: /	C: /	D: -29
> O=C(Nc1cccc(Cl)c1N1CCOCC1)c1ccco1
  A: 105	B: 119	C: 80	D: -11
> COC(=O)c1cc2occc2n1Cc1nc(-c2cccc(Br)c2)oc1C
  A: 102	B: 123	C: 99	D: -13
> COC(=O)Cn1c(=O)c2cccn2c2cccnc21
  A: 110	B: 89	C: 83	D: -4
> c1ccc(CSc2nc3ccccc3n2Cc2ccccn2)cc1
  A: 99	B: 121	C: 75	D: /
> O=C(NC1CCCC1)c1cc(F)c(F)cc1Cl
  A: /	B: 84	C: 91	D: -9
> CCS(=O)(=O)c1ccc2oc(CN3C(=O)S/C(=C\c4ccccc4Cl)C3=O)nc2c1
  A: /	B: 113	C: 104	D: 13

Rows were taken by chance; about 0.85% have a hit in one of these screens.
